From PubChem
Vaccinia mCherry: vaccinia inhibition (mCherry reporter). Vaccinia virus mCherry reporter infection, fluorescence; about a quarter of the inactives have no number. Potency, µM (highest dose often 36.5 µM), for the others: at the top dose activity change, negative = inhibition, hits mostly inhibitors. actives 0.63% (n = 310,000); active = well fitted inhibition curve with a large enough effect; inconclusive = small, poorly fitted or top-dose-only effect; inactive = no such curve, though single readings can be large or run the other way; tested in A549 cells; note: nearly all actives have a fitted effect of over 35% in size; inactives centre near -10
VACV Venus inh: inhibitors of vaccinia virus (Venus reporter). Vaccinia virus Venus reporter expression, fluorescence. Potency, µM (series often up to 36.5 µM), inactives show top-dose activity change, negative = inhibition, most hits filed as inhibitors. actives 0.46% (n = 330,000). AID 720580; active means well fitted inhibition curve with a large enough effect; inconclusive means small, poorly fitted or top-dose-only effect; inactive means no such curve, though single readings can be large or run the other way; tested in A549 cells; note: nearly all actives have a fitted effect of over 30% in size; inactives centre near -10
An asterisk follows results filed as active; i = inactive; ? = inconclusive; · = no result given; & = joins results of further samples; [ ] = another dose, or the depositor's remark. % is set by controls: 0 for no effect and ±100 for the full control effect; potency is the fitted concentration of half-maximal effect. Rows are unselected; about 0.87% have a hit in one of these screens.

SMILES | Vaccinia mCherry | VACV Venus inh
COc1ccc2c(c1)SCC/C2=C\CN1C(=O)CCC1=O | i | -8%
O=C(COC(=O)c1ccccc1NCCO)NCCC1=CCCCC1 | i | -4%
O=C(NCCc1ccccc1)c1nc2nc(-c3cccs3)cc(C(F)(F)F)n2n1 | -20% | -22%
COCCNC(=O)C(=O)c1c(-c2ccccc2)[nH]c2ccccc12 | 1% | 2%
COC(=O)[C@@]12CCCCN1[C@H](c1ccc(-c3ccc4c(c3)OCO4)c(OC)c1)[C@@H]1C(=O)N(C)C(=O)[C@@H]12 | ? | ?
O=[N+]([O-])c1ccc(Cl)c(-c2ccc(/C=N/n3cnnc3)o2)c1 | -6% | -13%
CCN(CC)C1=NC=CC(c2ccccc2)=CC1C (stereo not given) | i | -1%
O=C(NCC(c1ccc(F)cc1)N1CCOCC1)c1cccnc1Sc1ccc(Cl)cc1 (stereo not given) | -12% | -16%
CCOc1ccc(/C=C/c2nc(C#N)c(N3CCN(CC)CC3)o2)cc1 | -19% | -14%
CC(C)c1ccc(S(=O)(=O)c2ccc(NN)cc2)cc1 | ? | -6%
O=C(CNS(=O)(=O)c1ccccc1)Nc1ccc(C(F)(F)F)cc1 | -1% | -21%
CC(C)=CCN1CCN(Cc2cccc3nonc23)CC1CCO (stereo not given) | -18% | -18%
COc1ccccc1Nc1nnc(SCC(=O)N2CCCC2=O)s1 | -14% | 6%
COc1ccc(C(=O)OC2CC[C@@]3(C)C4CCC5[C@]6(O)CC(O)[C@@]7(O)C(CN8CC(C)CCC8[C@@]7(C)O)[C@]6(O)C[C@@]53O[C@]24O)cc1OC (stereo not given in full) | -12% | -17%
COc1ccc(CCN2C(=O)c3ccccc3C2c2nnnn2-c2c(C)cccc2C)cc1OC (stereo not given) | -10% | -3%

The closing 2 records of the part above come first, to join the parts:
SMILES | Vaccinia mCherry | VACV Venus inh
COc1ccc(C(=O)OC2CC[C@@]3(C)C4CCC5[C@]6(O)CC(O)[C@@]7(O)C(CN8CC(C)CCC8[C@@]7(C)O)[C@]6(O)C[C@@]53O[C@]24O)cc1OC (stereo not given in full) | -12% | -17%
COc1ccc(CCN2C(=O)c3ccccc3C2c2nnnn2-c2c(C)cccc2C)cc1OC (stereo not given) | -10% | -3%
CCN(CC)C(=O)COc1cc(C)cc2oc(=O)c3c(c12)CCCC3 | -15% | -11%
C#CCNC(=O)C1=C[C@H](c2ccccc2)C[C@H](OCCCCO)O1 | -27% | -12%
Cc1ccc(-n2nnnc2Sc2ccc(S(=O)(=O)NCCN(C)C)cc2[N+](=O)[O-])cc1 | ? | 11µM*
CC1CCCCC1N=CC1=C(O)CC(C)(C)CC1=O (stereo not given) | -7% | -6%
CCOC(=O)c1c(C)cc2c(CO)n[nH]c(=O)c2c1C | -13% | -24%
CCOC(=O)[C@]12CCC=C1N(Cc1cccc3ccccc13)C(=O)[C@H](CC(=O)NCc1ccc(C)o1)C2 | -18% | -4%
O=C1CSC(c2ccc(Cl)cc2)N1c1cccnc1 (stereo not given) | -4% | -9%
CN1CCN(C(=S)SCC(=O)Nc2nc(-c3ccccc3)c(-c3ccccc3)o2)CC1 | -15% | -20%
CCCCn1c(SCC(=O)NC(=O)NCc2ccco2)nc2cc(S(N)(=O)=O)ccc21 | -8% | -5%
COc1ccccc1/C=N/NC(=O)c1sc(C)nc1C | -14% | 1%
Cc1cccc2cc(=O)[nH]c(C)c12 | -13%[1.46 µM] | -14%
CCCNC(=O)c1cc2c(c(-c3cccc(-c4ccc(F)cc4)c3)n1)[C@@H](CCO)N(S(=O)C(C)(C)C)C2 (stereo not given in full) | 23% | -5%
Cc1csc(SCC(=O)NC2CCCCC2)n1 | · | -33%
COc1ccc(OC)c(S(=O)(=O)N2CCC(C(=O)NCc3ccc4c(c3)OCO4)CC2)c1 | -17% | -15%
Oc1c(Br)c(Br)c(Br)c(Br)c1Br | -5% | -24%
COc1ccc(C(O)c2ncc(-c3ccccc3Cl)[nH]2)cc1 (stereo not given) | 20% | -7%
COc1ccc(CNC(=O)C(C)N2C(=O)NC3(CCCCCCC3)C2=O)cc1 (stereo not given) | -11% | -20%
COc1ccc(CCNc2nc3cc(OC)c(OC)cc3c3nc(-c4cccnc4)nn23)cc1OC | -20% | -7%
Cc1ccc(S(=O)(=O)N2CCC(C(=O)Nc3ccc(S(=O)(=O)N4CCOCC4)cc3)CC2)cc1 | -7% | -20%
CC1(C)Cc2cccc(OCC(=O)Nc3cccnc3Cl)c2O1 | -2% | -15%
COC(C[C@H]1O[C@H]1[C@@H](O)[C@H](C)OCc1ccccc1)OC | i | -23%
COc1ccccc1C(CC(=O)Nc1nccs1)c1ccco1 (stereo not given) | -18% | -5%
Cc1c(C(=O)NCc2cccc(Cl)c2)sc2ncnc(N(C)C3CCCCC3)c12 | -9% | -3%
COc1ccc(CCNC(=O)CCCCn2c(=O)c3ccccc3n(CC(=O)Nc3ccccc3C)c2=O)cc1OC | -4% | 0%
CCOC(=O)c1c(C)[nH]c(C)c1-c1ccccc1OC | · | ?
COCc1ccccc1C1=CC(=O)C[C@H](c2ccc(OC)cc2)C1 | -23% | -10%
Cn1cccc1Cc1nnc(SCC(=O)N2CCN(c3ccccc3)CC2)n1-c1ccc(F)cc1 | -25% | -17%
CC(=O)c1c(C)n(-c2ccc(Cl)cc2)c2ccc(OC(=O)COc3ccccc3)cc12 | -15% | -12%
COc1ccc(Nc2nc(C)cc(C)c2C(N)=O)cc1OC | -14% | -16%
Cc1ccc2c(c1)=N/C(=N\c1[nH]c(O)c3ccccc13)N=2 | ? | ?

Random excerpt: 7 compounds from above, in no set order.
SMILES | Vaccinia mCherry | VACV Venus inh
COc1ccc(C(=O)OC2CC[C@@]3(C)C4CCC5[C@]6(O)CC(O)[C@@]7(O)C(CN8CC(C)CCC8[C@@]7(C)O)[C@]6(O)C[C@@]53O[C@]24O)cc1OC (stereo not given in full) | -12% | -17%
CC(C)c1ccc(S(=O)(=O)c2ccc(NN)cc2)cc1 | ? | -6%
O=C(COC(=O)c1ccccc1NCCO)NCCC1=CCCCC1 | i | -4%
CC1(C)Cc2cccc(OCC(=O)Nc3cccnc3Cl)c2O1 | -2% | -15%
CCN(CC)C(=O)COc1cc(C)cc2oc(=O)c3c(c12)CCCC3 | -15% | -11%
CCCNC(=O)c1cc2c(c(-c3cccc(-c4ccc(F)cc4)c3)n1)[C@@H](CCO)N(S(=O)C(C)(C)C)C2 (stereo not given in full) | 23% | -5%
CCN(CC)C1=NC=CC(c2ccccc2)=CC1C (stereo not given) | i | -1%

A few values from the entries so far:
`CCOC(=O)c1c(C)cc2c(CO)n[nH]c(=O)c2c1C` in VACV Venus inh reads -24%
`CCN(CC)C1=NC=CC(c2ccccc2)=CC1C` (stereo not given) in VACV Venus inh reads -1%
`Cc1ccc(-n2nnnc2Sc2ccc(S(=O)(=O)NCCN(C)C)cc2[N+](=O)[O-])cc1` in VACV Venus inh reads 11µM*

Additional entries follow.
SMILES | Vaccinia mCherry | VACV Venus inh
c1ccc(Cn2nnc3c(N4CCc5ccccc5C4)ncnc32)cc1 | -21% | -12%
COc1ccc(CCNC(=O)CSc2nnc(-c3cccc(F)c3)o2)cc1OC | -10% | -21%
CN(Cc1ccccc1)S(=O)(=O)c1nnc(NC(=O)c2ccccc2)s1 | -8%&-2% | 1%&-3%
COc1ccccc1NC(=O)Cn1cc(C(=O)c2ccco2)c2ccccc21 | -5% | -20%
CCOc1ccccc1OCCCC(=O)N1CCN(S(=O)(=O)c2ccccc2C#N)CC1 | ? | -18%
COc1ccccc1C(=O)n1nc(-c2ccco2)nc1N | -21% | -15%
O=C(NCCc1ccccc1)c1ccc(-c2ccccc2Cl)o1 | i | -22%
Cc1ccc(Cn2ncc3c(N4CCCC4)ncnc32)cc1 | · | -19%
COc1ccc(NC(=O)COC(=O)c2cc(=O)c3ccccc3o2)cc1OC | i | -9%
C/C(N)=C(/C#N)C(=O)CSc1n[nH]c(-c2cccs2)n1 | -16% | -12%
Cc1cc(C(C#N)c2ccc(Cl)cc2)c(Cl)cc1NC(=O)c1cc(I)cc(I)c1O (stereo not given) | -9% | -22%
O=C(NC1CCCCC1)N1CCCC(c2nc3ccccc3[nH]2)C1 (stereo not given) | i | -13%
COc1cc2[nH]ccc(=O)c2cc1OC | i | -7%
COc1cccc(CN2CCN(Cc3ccc(O)cc3)CC2CCO)c1 (stereo not given) | i | 2%
CCOC(=O)N1CCC(NC(=O)c2cnn(-c3cccc(C)c3)c2C2CCN(C(=O)OC(C)(C)C)CC2)CC1 | -13% | -3%
CC(=O)Nc1ccc(S(=O)(=O)N(C)Cc2cnn(C)c2)cc1 | -10% | -3%
CC(C)CC(NC(=O)C1CCC(C)CC1)C(=O)Nc1cccnc1 (stereo not given) | -16% | -19%
O=C1CCc2cc(S(=O)(=O)Nc3ccc(C(F)(F)F)cc3)cc3c2N1CC3 | i | -15%
O=C(NC(=S)Nc1cccc([N+](=O)[O-])c1)C1CCCCC1 | -13% | 1%
Cn1c(=O)c2c(nc(CN3CCc4ccccc4C3)n2CC(=O)c2ccccc2)n(C)c1=O | -19% | -27%
O=C(Nc1cccc(Cl)c1)c1cc(-c2ccco2)on1 | 0% | 1%
Cc1cccn2c(=O)c(C(=O)NCCCN3CC(C)CC(C)C3)c(O)nc12 (stereo not given) | -16% | -2%
COc1ccccc1N1CCN(C(=O)c2ccco2)CC1 | -10% | 13%
O=C(Nc1cccc(F)c1F)C1CCN(c2ncccn2)CC1 | -11% | -3%
Cc1nnc2ccc(N3CCN(C)CC3)nn12 | i | -15%
COc1cccc(CN2CC(C(=O)NC3CCC(O)CC3)CCC2=O)c1 (stereo not given) | -15% | -12%
COc1ccc(-c2nn(CCC#N)cc2C(=O)Nc2ccccc2Cl)cc1 | i | -19%
O=C(COc1ccccc1F)Nc1nnc(SCc2cc(=O)n3ccccc3n2)s1 | -23% | -11%
CC(=O)c1cccc(NC(=O)N2CCCC2C(=O)NCc2ccc(C)cc2)c1 (stereo not given) | -10% | -8%
O=C(CN1C(=O)c2ccccc2C1=O)C(O)CN1C(=O)c2ccccc2C1=O (stereo not given) | -3% | 4%

Filtered by structure: those above with a nitro group on carbon (three)
SMILES | Vaccinia mCherry | VACV Venus inh
O=[N+]([O-])c1ccc(Cl)c(-c2ccc(/C=N/n3cnnc3)o2)c1 | -6% | -13%
Cc1ccc(-n2nnnc2Sc2ccc(S(=O)(=O)NCCN(C)C)cc2[N+](=O)[O-])cc1 | ? | 11µM*
O=C(NC(=S)Nc1cccc([N+](=O)[O-])c1)C1CCCCC1 | -13% | 1%

Next part
SMILES | Vaccinia mCherry | VACV Venus inh
Fc1ccc(-c2cc(-c3nc(-c4ccc(Cl)cc4)no3)[nH]n2)cc1 | -8% | -10%
Cc1ccc(-c2nnc(SCC(=O)Nc3ccc4c(c3)OCCO4)n2N)cc1 | · | -13%
CN1CCC(N(C)CC(O)c2ccccc2)CC1 (stereo not given) | i | -12%
CN1CCN(C(=O)c2cnn3c2NC(c2ccccc2)CC3C(F)(F)F)CC1 (stereo not given) | -2% | -11%
Cc1occc1C(=O)NCc1ccccc1 | · | -9%
COc1ccc(C2N(c3ccc4c(c3)OCCO4)C(=O)C2(F)F)cc1OC (stereo not given) | -18% | -17%
O=C(CSc1ccc2nnc(-c3ccccc3)n2n1)N1CCCc2ccccc21 | -10% | 6%
CCOC(=O)[C@H]1[C@H]2COc3ccc(OC)cc3[C@@H]2N2C(=O)c3cc(F)c(F)cc3NC(=O)[C@@]12C | -15% | -6%
Cc1ccc(S(=O)(=O)N/N=C\c2cc3c(cc2[N+](=O)[O-])OCO3)cc1 | ? | -25%
CC(=O)NC1=NC(=O)/C(=C/N2CCOCC2)S1 | -24% | -13%
COc1ccc(-c2csc(NC(=O)CN3C(=O)C4CCCCC4C3=O)n2)c(OC)c1 (stereo not given) | ? | -30%
Cc1ccc(NC(=O)CSc2nnc(-c3cc(C)[nH]n3)n2N)c(C)c1 | i | -12%
O=C(CN1C(=O)COc2ccccc21)N1CCN(C2CCCCC2)CC1 | i | 0%
O=[N+]([O-])c1ccc(-c2cn(-c3ccccc3F)c(=S)[nH]2)cc1 | i | -23%
CCn1ccnc1CN1CCC(n2nccc2NC(=O)CCc2ccccc2)CC1 | -11% | -6%
O=C(OCCCc1cc2ccccc2c(=O)o1)c1ccc(C(F)(F)F)cc1 | -13% | -11%
Cn1ncc(Br)c1C(=O)N1CCN(C(=O)c2ccco2)CC1 | i | -5%
Cc1ccc(OCC(=O)Nc2ccc3c(c2)CCC3)c([N+](=O)[O-])n1 | i | -3%
O=C(O)CSCC(=O)N(c1ccccc1)c1ccccc1 | i | -7%
C/C(CC(=O)N1CCN(C=O)CC1)=N\NC(=O)c1ccc(Cl)cc1 | i | -2%
C/C=C(/C)C(=O)Nc1cccc(C2=NOC3(C2)C[C@H](C(N)=O)N(C(=O)Cc2ccc([N+](=O)[O-])cc2)C3)c1 (stereo not given in full) | i | 1%
CC(=O)CSc1ccc(-c2nc3cc(C)c(C)cc3[nH]2)cn1 | -26% | -13%
O=C(CSc1nc2c([nH]c3ccccc32)c(=O)n1-c1cccc(Cl)c1)NCc1ccccc1 | -7% | -8%
O=C(Nc1ccccc1C(=O)NCC1CCCO1)c1ccccc1F (stereo not given) | -13% | -2%
Cc1nnc2sc(SCC(=O)Nc3nccs3)nn2c1=O | i | -12%
O=C(Nc1ccc(-c2noc(COc3ccccc3Cl)n2)cc1)c1ccco1 | · | -29%
CC(=O)Nc1ccc(-c2ccnc3c2CC(C)(C(=O)Nc2ccc(Cl)cc2)O3)cc1 (stereo not given) | -8% | -20%
O=C(CCCCn1c(=O)c2ccccc2n(Cc2ccc(Cl)cc2)c1=O)NCc1ccccc1Cl | -30% | -20%
